Compound activity from PubChem BioAssay.
ugtP null kill – growth inhibition of S. aureus ugtP deletion strain | S. aureus RN4220 ugtP deletion, OD600 growth, 16 h; some inactives read as strong as hits | growth inhibition, % (concentration not given with the values) | 330,000 compounds, 0.54% hits;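 active = z-score under -3 and OD600 up to 0.15 on both plates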;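 note: plate controls were untreated wells for no effect and antibiotic for full effect; wells of about 80 µL received 100 nL stock; the first replicate is given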
PrP UTR inh – inhibition of PrP 5' UTR reporter expression | cell-based PrP 5' UTR mRNA reporter, plate reader | inhibition, % (concentration not given with the values) | 340,000 compounds, 0.35% hits | AID 488862;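 active = every replicate at 50% or more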;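 note: 0 = median of the neutral control wells; tested in H4 reporter cells; numbers are from one replicate; inactives centre near -14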
Sa RN4220 lethal – kills Staphylococcus aureus RN4220; AID 1259311; S. aureus RN4220 growth, OD600, 16 h; inhibition, % (concentration not given with the values); 330,000 compounds, 0.33% hits;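 active = z-score of -3 or lower and OD600 up to 0.18 on both plates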;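 note: plate controls were untreated cells for no effect and reference antibiotic for full effect; stock transfer was 100 nL into about 80 µL; one replicate is shown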
Mtb hypoxia rep – Mtb hypoxia fluorescent reporter inhibition. M. tuberculosis hypoxia-regulated fluorescent reporter, fluorescence. fluorescence inhibition, % (test concentration not listed). 300,000 compounds, 0.1% hits;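 active = 35 to 45% if threefold the growth effect, above 45% if 1.5-fold the growth effect; inactive = the rest, general growth blockers included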;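 note: wells of about 50 µL received 100 nL stock; 0% = vehicle wells and 100% = reference inhibitor wells; whole bacteria with a GFP reporter of the hypoxia response; strong numbers were not always called active; many hits fall short of the cut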
Autofluor counter – flagged as autofluorescent in microsphere protease counterscreen; 360,000 compounds, 3.1% hits; fluorescence intensity (test concentration not listed); AID 624483; compound autofluorescence counterscreen, microsphere flow cytometry; stronger effect = higher value;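 active = at least 3 SD above the mean of all compounds, about 16000 in these data; inconclusive = too few beads counted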;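 note: 100 nL of 1 mM stock went into each well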
BJeLR lethal – BJeLR cell viability loss; AID 1554; BJeLR (HRASV12) viability, CellTiter-Glo ATP luminescence, 48 h; reference of the scale not given here; inhibition, % (test concentration not listed); 300,000 compounds, 0.17% hits;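 active = replicate mean above 50%; inconclusive = above 50% but judged a plate artefact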;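 note: 50 nL library stock added to about 25 µL; numbers are from one replicate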
Mtb hypoxia rep growth – recorded beside Mtb hypoxia rep, whose call it bears; growth inhibition, %; measured here: M. tuberculosis growth (absorbance);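 0% = vehicle and 100% = reference antibiotic; read after six days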
* = called active by the depositor; ? = inconclusive; · = not tested or not shown. An unsorted share of the library; about 3.9% have a hit in one of these screens.

SMILES	ugtP null kill	PrP UTR inh	Sa RN4220 lethal	Mtb hypoxia rep	Mtb hypoxia rep growth	Autofluor counter	BJeLR lethal
Cn1nc(-c2ccc(C(=O)Nc3ccc(F)cc3)cc2)c2ccccc2c1=O	-2	-13	-8.4	0	2	4809	3
COc1ccccc1CN(C)C(=O)C1COc2ccccc2O1 (configuration not stated)	0	-33	7.0	10	-4	5282	-6
COc1ccc(S(=O)(=O)N2CCC(C(=O)NCCN3CCOCC3)CC2)cc1	-1	7	0.8	-4	-3	5637	4
COC(=O)c1ccccc1NC(=S)NC(=O)c1ccccc1F	5	-10	4.7	-14	0	2061	-20
Cc1c(NC(=O)c2cccc(NC(=O)Cc3ccc(Cl)cc3)c2)c(=O)n(-c2ccccc2)n1C	13	-4	6.3	5	-9	2947	·
CN(C)S(=O)(=O)c1ccc(Cl)c(NC(=O)COC(=O)c2ccc(O)cc2)c1	10	-4	5.5	9	-3	4512	3
Cc1cc(-c2ccccc2)c2c(=O)[nH][nH]c2n1	15	-7	16	12	1	9128	9
COc1ccc(-n2c(N)c(C(=O)NCc3ccco3)sc2=S)cc1	3	-26	1.1	·	·	3970	-2
CCCCNC(=O)N(O)C1N(N=Cc2ccccc2F)C(=S)SC1(C)C (configuration not stated)	14	·	-2.8	4	7	·	·
CSc1ncccc1C(=O)N1CCCC(C(=O)c2cc(F)ccc2F)C1 (configuration not stated)	1	-15	4.0	10	9	3476	-5
CC1Cc2ccccc2N1CC(=O)NC(=O)NCc1ccccc1 (configuration not stated)	9	-29	0.5	16	11	3271	·
CC1CCCN(CC(=O)N2CCCc3ccccc32)C1 (configuration not stated)	-3	-21	0.5	-6	5	10868	-1

Of the compounds above, 5 have nitrogen in an aromatic ring:
SMILES	ugtP null kill	PrP UTR inh	Sa RN4220 lethal	Mtb hypoxia rep	Mtb hypoxia rep growth	Autofluor counter	BJeLR lethal
Cn1nc(-c2ccc(C(=O)Nc3ccc(F)cc3)cc2)c2ccccc2c1=O	-2	-13	-8.4	0	2	4809	3
Cc1c(NC(=O)c2cccc(NC(=O)Cc3ccc(Cl)cc3)c2)c(=O)n(-c2ccccc2)n1C	13	-4	6.3	5	-9	2947	·
Cc1cc(-c2ccccc2)c2c(=O)[nH][nH]c2n1	15	-7	16	12	1	9128	9
COc1ccc(-n2c(N)c(C(=O)NCc3ccco3)sc2=S)cc1	3	-26	1.1	·	·	3970	-2
CSc1ncccc1C(=O)N1CCCC(C(=O)c2cc(F)ccc2F)C1 (configuration not stated)	1	-15	4.0	10	9	3476	-5

(cont.)
SMILES	ugtP null kill	PrP UTR inh	Sa RN4220 lethal	Mtb hypoxia rep	Mtb hypoxia rep growth	Autofluor counter	BJeLR lethal
CCc1nc2nc(C)c(NS(=O)(=O)c3ccc(Cl)cc3)c(=O)n2[nH]1	3	-8	1.4	3	7	3100	1
CC1(C)CC(NC(=O)c2ccc(Cl)cc2)CC(C)(C)N1	1	-10	5.1	17	2	3709	8
COc1ccc(C(Nc2ccccn2)c2c(NC(=O)c3ccco3)sc(C)c2C)cc1OC (configuration not stated)	-7	-28	1.6	3	9	2556	-3
Cc1ccc(NC(=O)Nc2ccc(F)c(Cl)c2)cc1	-12	-97	-2.2	0	-6	5882	10
Cc1cc(C)c(NC(=O)COc2ccccc2C(=O)Nc2ccc3c(c2)oc2ccccc23)c(C)c1	-4	-20	-14	·	·	4613	-1
c1ccc(-c2ccc(OCCCNC3CCCC3)cc2)cc1	-6	-13	-5.2	8	23	4597	2
Cc1c(N(C(=O)c2cc(=O)[nH]c3ccccc23)C(C)C)c(=O)n(-c2ccccc2)n1C	3	0	2.6	6	1	8763	6
CC1=C(C(=O)OCc2ccccc2)C(c2ccc([N+](=O)[O-])cc2)NC(=O)N1C (configuration not stated)	7	-4	3.0	14	8	4016	-16
CC(=O)Nc1ccc2c(CN3C(=O)NC(C)(c4ccc(C)cc4)C3=O)cc(=O)oc2c1 (configuration not stated)	9	2	3.4	-4	3	4427	4
Cc1c(Cl)cccc1-c1ccc(C=Nn2cnnc2)o1	5	·	2.0	9	-2	·	·
O=C(CSc1ccccc1)NC1CCCCCCC1	4	-21	1.8	1	-3	4064	-2
CCOC(=O)c1c(C)n(C)c2c(C)cc(O)c(OC(=O)CC)c12	3	-20	2.0	·	·	4181	-3
Cn1c2ccccc2c2cc(/C=C(\NC(=O)c3ccccc3)C(=O)NCC(=O)O)ccc21	2	·	0.6	1	-9	3296	3
O=C(CSc1nnc(-c2ccc(F)cc2)c2ccccc12)Nc1cccc(Cl)c1	-13	-17	5.5	8	0	2161	5
CCC(=O)N1N=C2C3CCN(CC3)C2C1c1ccccc1 (configuration not stated)	6	-20	3.3	5	6	8309	-1
CC(C)CNC(=O)c1cccc(NC(=O)c2ccc3c(c2)C(=O)N(C)C3=O)c1	7	-13	4.3	-6	7	3800	4
COc1ccc(CCNC(=O)c2ccc(S(=O)(=O)N(C)c3ccccc3)cc2)cc1OC	7	-21	2.3	14	2	5759	-7
COC(=O)[C@]1(C)N[C@H](CN(C)C(=O)COc2ccccc2)[C@@H]2C(=O)N(C)C(=O)[C@@H]21	-1	-2	1.7	-9	1	3563	·
CCc1ccc(N2C(=O)C(Cl)=C(N3CCCCCC3)C2=O)cc1	15	-20	1.3	8	-1	3605	3
CCCSc1nnc(CNC(=O)C23CC4CC(CC(C4)C2)C3)n1Cc1ccccc1	0	-4	10	-2	4	2080	-4
O=[N+]([O-])c1cc(/C=N/Nc2nc(N3CCCCC3)nc(N3CCCCC3)n2)ccc1O	·	-16	·	·	·	2030	1
COc1ccc(C(=O)NCCONC(=O)c2ccc(OC)cc2)cc1	3	-7	1.6	12	1	6405	13
CC(=O)c1ccc(NC(=O)CSc2nnc(NC(=O)CN3CCOCC3)s2)cc1	0	-26	-1.1	·	·	5339	-3
CN(C)C(=O)N1CCC(C(=O)NCc2ccccc2)CC1	-4	-11	-4.0	-6	10	6437	0
COc1cc2cc(Oc3ccc4ccc(=O)oc4c3)c(=O)oc2cc1OC(=O)/C=C/c1ccccc1	·	7	·	·	·	3122	-1
Cc1ccc(-c2csc3ncn(CC(N)=O)c(=O)c23)cc1C	9	-7	3.3	0	2	4624	-6
O=C(CSc1ncccn1)NC(=O)NCc1ccco1	3	-27	5.7	6	-1	4954	5
NS(=O)(=O)c1ccc(NC(=O)COC(=O)CCc2nc3ccccc3c(=O)[nH]2)cc1	4	-22	-0.4	17	47	3992	·
O=C(NCc1cccs1)c1ccccc1[N+](=O)[O-]	5	-26	4.9	6	10	2552	-7
CN(C)N1C(N)=C(C#N)C(c2cccs2)C2=C1CC(C)(C)CC2=O (configuration not stated)	2	-28	3.1	7	2	4946	6
COc1ccccc1NC(=O)CCc1nc2sc3c(c2c(=O)[nH]1)CCCC3	2	-15	5.7	9	5	?	-5
COC(=O)/C=C1/S/C(=N/N=Cc2ccco2)NC1=O	-4	·	0.5	15	9	·	·
O=C(Cc1ccccc1)Nc1ccc(Br)c(Cl)c1	-14	-22	-8.4	4	9	2354	-24
COc1ccccc1N(CC(=O)N1CCC(C(N)=O)CC1)S(=O)(=O)c1ccccc1	3	-10	4.3	9	4	4441	-8
Cc1nc(NC(=O)C2CC2)sc1C(=O)NC1CCCCC1	2	-16	7.5	4	4	3605	3
CCCc1[nH]nc2c1C(c1cn[nH]c1-c1ccc(F)cc1)C(C#N)=C(N)O2 (configuration not stated)	·	-17	·	·	·	9823	-2
CC(NC(=O)N1CCOCC1)c1ccccc1 (configuration not stated)	4	-27	3.1	4	6	3932	-7
O=C(OCC(=O)N1CCCC1)c1ccc(NS(=O)(=O)c2cccs2)cc1O	1	-17	-0.5	12	2	4427	1
CCC(C)NC(=O)CCCc1ccccc1 (configuration not stated)	7	-47	0.4	·	·	2362	3
COC(=O)c1ccc(Cl)c(NC(=O)CN2CCN(C)CC2)c1	·	-2	·	·	·	23083*	5
O=[N+]([O-])c1ccc(-c2ncc(-c3ccc(Br)cc3)o2)cc1	-13	-24	11	13	7	5782	-5
COc1ccc(C=NNC(=O)c2c(-c3ccccc3)noc2C)cc1[N+](=O)[O-]	2	·	2.2	5	2	·	·
CC(c1ccccc1)n1c(S(=O)(=O)O)nc2ccccc21 (configuration not stated)	-2	-33	2.5	16	5	4455	4
O=C(O)CCCC(=O)N1CCc2cc(S(=O)(=O)NCc3ccccc3)ccc21	9	-17	1.9	12	8	4526	-6
Nc1ccc(C(=O)NN=Cc2cccc(Oc3ccccc3)c2)cc1	-1	·	1.9	13	8	·	·
OC1(c2ccccc2)CN(c2ccccc2)C2=[N+]1CCS2 (configuration not stated)	-7	-18	-3.9	-3	10	3155	-3
CCCCC1C2=C3C(CC(C(=O)OC)=CC(C(=O)OC)C3C(C)(C)C2=O)n2c(=O)n(-c3ccccc3)c(=O)n21 (configuration not stated)	1	·	3.9	1	0	·	·
CC(C)C[C@H](CO)Nc1nc(Nc2cccc(Cl)c2)c2ncn(C(C)C)c2n1	·	-14	·	·	·	4375	5
COc1ccc(-c2nn(Cc3ccccc3)cc2C(=O)N2CCN(c3ncccn3)CC2)cc1OC	-4	-15	5.3	5	6	2778	·
CC(=O)NC(=S)Nc1ccc(NC(=S)NC(=O)c2cccs2)cc1	19	-21	5.7	22	30	5883	-6
Cc1cc(C(=O)NN=Cc2c(C)nn(-c3ccccc3)c2Cl)n[nH]1	8	·	3.1	9	10	·	·
O=C(Nc1ccc(C(F)(F)F)cc1)C1CCN(c2cnccn2)CC1	1	-10	-1.0	4	11	6107	0
CC(C)=NN1C(c2nonc2N)=NOC1(C)C	-4	·	0.1	-8	0	4389	-6
Cc1ccc(/C=N/n2cnc3sc(C)c(C)c3c2=O)o1	·	-42	·	·	·	4557	-8
CC12CCC(=O)C=C1CCC1C2C(O)CC2(C)C1CCC21OCC1=O (configuration not stated)	4	17	1.8	6	0	3550	·
Cn1c(=O)c(C(=O)NNC(=O)c2cccc(Cl)c2)c(O)c2ccccc21	100*	-14	100*	-4	8	4042	0
CCOc1ccc(N2CC(C(=O)Nc3cccc(C)c3C)CC2=O)cc1 (configuration not stated)	1	-8	3.1	13	6	3770	-3
CC(C)=CC(=O)N1CCCC(N2CCN(c3ccccc3C)CC2)C1 (configuration not stated)	1	-11	1.5	11	6	3905	-11
Cc1cc(OC(=O)c2cccc(Cl)c2)c([N+](=O)[O-])c(=O)[nH]1	-5	-15	-3.2	-10	-12	6274	7
Cc1cc(C)c(S(=O)(=O)N2CCC(C(=O)NCc3ccco3)CC2)c(C)c1	-2	-13	2.2	-11	11	9656	-5

2 of these compounds in another layout.
Every second line gives: ugtP null kill, PrP UTR inh, Sa RN4220 lethal, Mtb hypoxia rep, Mtb hypoxia rep growth, Autofluor counter, BJeLR lethal
> O=[N+]([O-])c1ccc(-c2ncc(-c3ccc(Br)cc3)o2)cc1
→ -13, -24, 11, 13, 7, 5782, -5
> COc1ccc(C=NNC(=O)c2c(-c3ccccc3)noc2C)cc1[N+](=O)[O-]
→ 2, ·, 2.2, 5, 2, ·, ·

Following part:
SMILES	ugtP null kill	PrP UTR inh	Sa RN4220 lethal	Mtb hypoxia rep	Mtb hypoxia rep growth	Autofluor counter	BJeLR lethal
CCNC(=S)N1CCC(C(=O)c2ccc3c(c2)OCCO3)CC1	4	-30	-0.2	1	7	4059	1
COc1cccc(/C=N/n2nnnc2N)c1	·	-22	·	·	·	6356	1
O=C(O)c1ccc(F)c(S(=O)(=O)Nc2ccccc2)c1	·	-17	·	·	·	9986	-4
O=C(NNC(=S)Nc1ccccc1Cl)C1CC1	4	-1	9.9	-6	-2	10044	4
O=C(CC(=O)c1ccccc1O)c1ccc(F)cc1	90*	-28	84	-1	7	9488	-3
COc1ccc(S(=O)(=O)N(C)c2ccc(C(=O)Nc3cccnc3)cc2)cc1OC	8	-1	4.5	10	10	6510	-1
CC12CC(=O)C3C(CCC4CC(=O)C=CC43C)C1CCC2=O (configuration not stated)	3	-29	3.7	11	15	3605	·
CC(=O)N1c2ccc(S(=O)(=O)CCC(=O)O)cc2CC1C (configuration not stated)	4	-3	1.3	·	·	2297	19
CCOc1c(OC)cc(C2C(C#N)=C(N)Oc3n[nH]c(-c4ccncc4)c32)cc1OC (configuration not stated)	-9	-11	-0.7	2	-2	2959	9
Cc1ccc(NC(=O)c2nc[nH]c2C(=O)N2CCC(C)CC2)cc1	2	7	3.8	9	-2	4170	10
CCC(C(=O)N1CCN(S(=O)(=O)c2sc(C(=O)O)c(C)c2C(=O)O)CC1)c1ccccc1 (configuration not stated)	2	-3	0.5	-9	4	9088	·
CC(=NNC(=O)c1ccc(Cl)cc1)c1cccc(NC(=O)C(C)C)c1	1	·	-4.5	-6	5	·	·
